# Screening results as filed in PubChem.
# Sa RN4220 lethal – S. aureus RN4220 growth inhibition | OD600, 16 h | inhibition, % (concentration not given with the values) | 330,000 tested, 0.33% active | AID 1259311;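 active means z-score of -3 or lower and OD600 up to 0.18 on both plates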;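 further: plate controls were untreated cells for no effect and reference antibiotic for full effect; stock transfer was 100 nL into about 80 µL; one replicate is shown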
# Sa ugtP lethal – compounds lethal to S. aureus RN4220 ugtP deletion mutant | 330,000 tested, 0.54% active | growth inhibition, % (concentration not given with the values) | OD600 growth, 16 h; some inactives read as strong as hits;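 active means z-score under -3 and OD600 up to 0.15 on both plates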;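 further: plate controls were untreated wells for no effect and antibiotic for full effect; wells of about 80 µL received 100 nL stock; the first replicate is given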
# Bead autofluor – flagged as autofluorescent in microsphere protease counterscreen; AID 624483; compound autofluorescence counterscreen, microsphere flow cytometry; hits give high values; fluorescence intensity (concentration not given with the values); 360,000 tested, 3.1% active;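 active means at least 3 SD above the mean of all compounds, about 16000 in these data; inconclusive means too few beads counted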;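 further: 100 nL of 1 mM stock went into each well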
# BJeLR lethal – BJeLR cell viability loss | AID 1554 | 300,000 tested, 0.17% active | BJeLR (HRASV12) viability, CellTiter-Glo ATP luminescence, 48 h; reference of the scale not given here | inhibition, % (no concentration beside the values);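 active means replicate mean above 50%; inconclusive means above 50% but judged a plate artefact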;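 further: 50 nL library stock added to about 25 µL; numbers are from one replicate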
# Mtb hypoxia inh – Mtb hypoxia fluorescent reporter inhibition | M. tuberculosis hypoxia-regulated fluorescent reporter, fluorescence | fluorescence inhibition, % (no concentration beside the values) | 300,000 tested, 0.1% active | AID 1159583;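 active means 35 to 45% if threefold the growth effect, above 45% if 1.5-fold the growth effect; inactive means the rest, general growth blockers included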;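 further: wells of about 50 µL received 100 nL stock; 0% = vehicle wells and 100% = reference inhibitor wells; whole bacteria with a GFP reporter of the hypoxia response; strong numbers were not always called active; many hits fall short of the cut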
# PrP 5UTR inh – suppresses PrP 5' UTR mRNA reporter expression. cell-based PrP 5' UTR mRNA reporter, plate reader. 340,000 tested, 0.35% active. inhibition, % (no concentration beside the values);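 active means every replicate at 50% or more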;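 further: 0 = median of the neutral control wells; tested in H4 reporter cells; numbers are from one replicate; inactives centre near -14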
# Mtb hypoxia inh growth – also measured in Mtb hypoxia inh; calls as there; growth inhibition, %; measured here: M. tuberculosis growth (absorbance);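 0% = vehicle and 100% = reference antibiotic; read after six days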
# Numbers without * were called inactive; ? = inconclusive; . = not tested or not shown.
SMILES,Sa RN4220 lethal,Sa ugtP lethal,Bead autofluor,BJeLR lethal,Mtb hypoxia inh,Mtb hypoxia inh growth,PrP 5UTR inh
CC1CN(C(=O)c2cc(COc3c(F)cccc3F)on2)CCN1C (configuration not stated),0.3,4,?,4,1,3,-4
CCN(c1ccc(F)cc1)S(=O)(=O)c1cccc2nsnc12,3.6,0,3856,4,1,2,-14
CN1CCN(c2ccccc2NC(=O)c2ccc(-c3cccc(Cl)c3)o2)CC1,-1.3,7,6124,0,-9,10,-5
N#C/C(=C\c1c(N2CCCCCC2)nc2ccccn2c1=O)C(=O)NC1CCS(=O)(=O)C1 (configuration not stated),1.0,1,7622,-4,-2,-1,-20
Cc1ccc(C)c2[nH]c(=O)c(CCNS(=O)(=O)c3ccccc3)cc12,6.0,3,4397,-4,8,10,-32
CCOc1ccc(CCNC(=O)c2ccc(CS(=O)Cc3ccc(Cl)cc3)o2)cc1OCC (configuration not stated),2.6,15,4830,2,4,5,-5
Nc1ncnc(Nc2ccc(S(N)(=O)=O)cc2)n1,0.7,2,4514,-3,10,0,-23
O=C(CC1CCCC1)Nc1ccc(Cl)c(S(=O)(=O)N2CCOCC2)c1,2.9,5,2971,.,2,2,-15
Cc1ccc(NC(=O)CCn2nnc3ccccc32)c(C)c1,0.1,-4,4278,-8,-2,10,-59
CN1C2CCC1CC(OC(c1ccccc1)c1ccccc1)C2 (configuration not stated),2.6,3,5843,2,12,5,11
C#CCNC(=O)C1=C[C@@H](C2CC2)[C@H](CCCO)[C@@H](OCC)O1,.,.,3489,3,.,.,-20
Cn1c2cc(C#N)sc2c2cnn(Cc3ccc(F)cc3)c(=O)c21,4.8,4,3878,.,-6,5,-15
CCOc1cc(/C=C(/NC(C)=O)C(=O)O)cc(Cl)c1OCc1ccc(Br)cc1,11,4,4708,-6,6,2,-7
Cc1ccc(Cl)c(OCCCCN(C)Cc2ccccc2)c1,1.4,0,22668*,2,5,13,-1
O=C(c1cc(COc2ccc(F)c(F)c2)on1)N1CCOCC1,-2.0,0,4451,0,-1,-2,-34
O=C(CCCC(=O)NCC1CCCO1)NCC1CCCO1 (configuration not stated),5.2,-1,3219,0,-1,2,-25
Oc1ccc2ccccc2c1C=Nc1nc2c(s1)CCCC2,-1.0,-9,.,.,4,1,.
COC(=O)c1cc(OC)c(OC)cc1NC(=O)CSc1nnc(-c2cccnc2)n1C,6.0,-21,20945*,5,-2,7,-15
O=C(CCCCCn1c(=S)[nH]c2cc3c(cc2c1=O)OCO3)NCCc1ccccc1,2.8,7,4175,8,-5,-9,-22
Cn1c(=O)n(CC(=O)O)c(=O)c2c1nc1n2CCCN1CCc1ccccc1,0.2,5,4123,1,4,-6,-23
CCCN(CC(=O)Nc1ccccc1OC)C(=O)Cn1c(=O)oc2ccccc21,3.5,10,?,.,-5,5,-26
CC(=N)c1c(O)cc(C)oc1=O,-1.1,1,3711,.,15,4,-19
COCCNC(=S)N/N=C/c1c(C)[nH]c2ccccc12,.,.,6070,4,.,.,4
O=[N+]([O-])c1ccc(-n2nnnc2-c2ccccc2)c([N+](=O)[O-])c1,11,43,2467,-6,8,11,0
O=C(CCNC(=O)c1ccccc1)OCC(=O)c1cccc(Cl)c1,-1.5,0,3231,8,5,2,-10

# Compound profiles, as listed above. Screens in order: Sa RN4220 lethal	Sa ugtP lethal	Bead autofluor	BJeLR lethal	Mtb hypoxia inh	Mtb hypoxia inh growth	PrP 5UTR inh
# Record of `CCCN(CC(=O)Nc1ccccc1OC)C(=O)Cn1c(=O)oc2ccccc21` = 3.5	10	?	.	-5	5	-26
# Record of `O=C(CCNC(=O)c1ccccc1)OCC(=O)c1cccc(Cl)c1` = -1.5	0	3231	8	5	2	-10

# Next section.
SMILES,Sa RN4220 lethal,Sa ugtP lethal,Bead autofluor,BJeLR lethal,Mtb hypoxia inh,Mtb hypoxia inh growth,PrP 5UTR inh
CC(=O)c1sc(-c2ccccc2)nc1C,9.2,1,4340,-19,1,0,-7
CCCCc1cc(=O)oc2cc(OCC(=O)N(CC)CC)ccc12,-5.2,0,6096,-3,-3,2,-16
COc1ccc(CNC(=O)c2sc3nc4c(c(C(F)(F)F)c3c2N)CCC4)cc1OC,3.3,2,2515,7,6,22,-12
Cc1ccc(Nc2nc(N)c([N+](=O)[O-])c(NCCO)n2)cc1C,6.9,-15,3193,-12,16,13,-2
COc1cccc(CNS(=O)(=O)c2ccc(S(=O)(=O)NC3CC3)cc2)c1,5.1,1,5923,-6,15,10,-25
Cc1ccc(NC(=S)NCc2ccccc2)c(C)c1,-3.4,10,3534,-3,1,8,-18
O=C(NCc1ccccc1)/C(=C\c1ccccc1)NC(=O)c1ccco1,0.9,4,5588,-9,6,1,-19
COc1ccc(NN=C(C#N)C(=N)N2CCCCC2)cc1,5.0,8,.,.,4,6,.
N#CCCNS(=O)(=O)c1ccc(C(=O)OCCCOC(=O)c2ccc(S(=O)(=O)NCCC#N)cc2)cc1,-1.5,9,5311,7,3,4,-19
Nc1ccc(C(=O)NN=Cc2ccc(N3CCOCC3)s2)cc1,-1.1,1,.,.,6,1,.
S=c1[nH]nc(COc2ccccc2)n1N=Cc1ccco1,4.5,4,.,.,4,-5,.
CCOC(=O)C(=O)Nc1ccccc1C(=O)OC,8.3,7,4375,8,3,10,-16
COc1ccc(CN(CC(=O)NC2CCCC2)C(=O)c2onc(C(N)=O)c2N)cc1,7.6,1,10450,3,-5,0,-2
COC(=O)[C@@]12CCCCN1[C@H](c1ccc(-c3ccc(OC)cc3)cc1)[C@@H]1C(=O)N(C)C(=O)[C@@H]12,.,.,3716,-7,.,.,-8
Cc1ccc(N2CCN(CC(O)COc3ccccc3)CC2)cc1 (configuration not stated),3.5,4,3346,-1,-3,-6,-5
CC(=O)NC(Cc1ccc(F)c(F)c1)C(=O)NC1CCN(S(=O)(=O)c2ccc(C)cc2)CC1 (configuration not stated),5.8,13,5626,-13,7,-2,-23
O=C(C1CCCC1)N1CCC(CO)(Cc2ccccc2Cl)CC1,4.1,-5,2568,-1,8,2,-11
Cc1nc([N+](=O)[O-])cn1CC(O)c1ccccc1 (configuration not stated),4.1,0,6125,6,4,-12,-29
COc1ccc(N2CCN(C(=O)C3CCC(Cn4c(=S)[nH]c5ccccc5c4=O)CC3)CC2)cc1 (configuration not stated),1.7,-5,17035*,3,0,-2,5
N#Cc1ccccc1S(=O)(=O)N1CCN(CC(=O)NCC2(N3CCOCC3)CCCCC2)CC1,0.1,4,5397,.,3,8,-17
Cc1ccc(C)c(C(=O)COC(=O)CCN2C(=O)C3C4CCC(C4)C3C2=O)c1 (configuration not stated),4.2,7,4396,9,6,0,-7
COc1ccc(CCN2C(=O)N(c3ccc(OC)cc3)C(=O)C2CC(=O)Nc2ccccc2)cc1 (configuration not stated),3.6,2,2719,10,11,7,-26
CCCCOC(=O)c1ccc(NC(=O)c2ccccc2OC)cc1,3.7,3,2532,9,10,6,-23
O=C(COc1ncnc2ccccc12)NCc1ccc2c(c1)OCO2,6.8,14,2515,6,7,10,-19
CCC(=O)Nc1cccc(NC(=O)CSc2nnnn2Cc2ccccc2)c1,4.3,8,3566,-3,7,3,-16
SMILES,Sa RN4220 lethal,Sa ugtP lethal,Bead autofluor,BJeLR lethal,Mtb hypoxia inh,Mtb hypoxia inh growth,PrP 5UTR inh
CCOC(=O)C1C(=O)C=C(c2ccc([N+](=O)[O-])cc2)CC1c1ccccc1 (configuration not stated),5.2,-1,3622,-2,7,7,-30
CCNC(=O)CN(CCc1ccccc1)S(C)(=O)=O,7.1,8,2637,-7,2,0,-14
COc1cc(NC(=O)c2ccnn2C)c(OC)cc1Cl,6.3,3,2250,0,3,14,4
CCN(c1ccccc1)S(=O)(=O)c1ccc(OC)c(NC(=O)C2=NN(c3ccccc3)C(=O)CC2)c1,7.0,-1,?,.,-6,0,22
Cc1csc(NC(=O)CSc2nc3ccccc3s2)n1,4.0,4,2323,-2,.,.,-6
CC(=O)NCCc1ccc(S(=O)(=O)N2CCN(c3nc(-c4ccccc4)c(C)s3)CC2)cc1,-0.9,4,3691,3,1,6,5
O=C(c1ccco1)N1CCN=C1SCc1ccccc1Cl,4.1,9,5113,-5,.,.,-12
O=C(NC1CCCCC1)c1cc(-c2ccccc2Cl)on1,4.8,3,3283,1,2,-2,-36
COc1ccccc1NC(=O)C1CC(C)OC1=O (configuration not stated),1.4,4,3833,0,13,2,-13
COc1ccccc1NS(=O)(=O)c1cc(C(=O)NCCC(C)C)ccc1F,5.6,5,3409,3,9,2,-70
Nc1cc(C(=O)OCC(=O)NCCNC(=O)COC(=O)c2ccc(Cl)c(N)c2)ccc1Cl,4.9,10,5465,-8,2,3,-22
CN(CC(=O)Nc1ccc(F)cc1)C(=O)COC(=O)/C=C/c1ccccc1[N+](=O)[O-],-0.7,1,.,.,-2,-3,-10
CC(=O)Nc1cccc(C(=O)N2CCN(S(=O)(=O)Cc3ccccc3)CC2)c1,-0.6,2,3730,.,11,5,-17
COc1ccc(NC(=O)CSc2nnc(C3CCCCC3)n2N)cc1,3.9,7,3994,0,-1,0,-35
CC(C)(CC(=O)O)CC(=O)Nc1cc(C(F)(F)F)cc(C(F)(F)F)c1,15,10,4621,12,6,-9,4
CSCCC(NC(=O)OC(C)(C)C)c1nnc(SCC(N)=O)o1 (configuration not stated),6.5,1,.,.,6,4,.
Cc1ccc(Oc2ncnc(N)c2[N+](=O)[O-])cc1C,1.7,8,3992,3,9,8,-11
Cc1oc2c(cc(NS(=O)(=O)c3cccs3)c3ccccc32)c1C(=O)OC(C)C,-2.7,-25,2582,-3,0,-1,-25
CCc1nnc(NC(=O)CSc2nnc(-c3ccccc3O)n2-c2ccc(C)cc2C)s1,1.8,2,2861,28,.,.,-10
COc1ccc(NC(=O)Cn2c(-c3ccccc3)cn(-c3ccc(C)cc3)c2=O)cc1,-3.9,3,9678,6,-10,-2,-26
CC(C)(C)c1ccc(NC(=O)NCc2ccco2)cc1,-1.5,5,9096,-1,16,7,-57
O=C(COc1ccc(CO)cc1Cl)Nc1ccc(F)cc1,-0.2,-7,4386,3,0,4,-42
COc1cc(C(C)=O)ccc1OC(=O)N(C)c1ccccc1,2.1,1,3244,-1,-4,-3,10
O=C(Cc1ccc(F)cc1)Nc1c(C(=O)N2CCN(c3ncccn3)CC2)oc2ccccc12,3.0,9,4363,-1,15,4,-15
Cc1nn(-c2ccccc2)c(C)c1/C=C/C(=O)OC(C)C(N)=O (configuration not stated),.,.,2613,7,.,.,-33
SMILES,Sa RN4220 lethal,Sa ugtP lethal,Bead autofluor,BJeLR lethal,Mtb hypoxia inh,Mtb hypoxia inh growth,PrP 5UTR inh
Cc1ccc2nc(N3C(=O)C(O)=C(C(=O)c4ccco4)C3c3ccc(O)cc3)sc2c1 (configuration not stated),.,.,5013,3,.,.,-71
O=C(C1CCCN(Cc2cc(Br)ccc2O)C1)N1CCCCC1 (configuration not stated),3.1,9,3412,3,.,.,-23
COc1ccc(/C=N/NC(=O)c2nn(-c3ccc(C)c(C)c3)c(=O)c3ccccc23)cc1,.,.,2660,-3,.,.,-8
C/C(=N\NC(=O)c1ccccc1Cl)c1ccccn1,.,.,3701,48,.,.,18
CCOC(=O)c1cc(CC)sc1NC(=O)c1ccc([N+](=O)[O-])c(N2CCOCC2)c1,11,7,2550,8,5,-2,-11
Cc1cc(C)c(NC(=O)/C=C\C(=O)O)c([N+](=O)[O-])c1,.,.,2400,0,.,.,-7
CC(=O)COC(=O)C1CCN(S(=O)(=O)c2cc([N+](=O)[O-])ccc2Cl)CC1,5.6,5,4216,2,15,1,4
O=C(Nc1nc(-c2cc(F)ccc2F)cs1)C1=COCCO1,1.5,-17,5952,-3,-5,7,-45
CC1CCCCN1S(=O)(=O)c1ccc(N(C(=O)c2cnccn2)C(C(=O)NC2CCCCC2)c2cccs2)cc1 (configuration not stated),3.0,-1,2640,-1,-3,-2,-5

# Looked up one by one from the entries so far (five):
SMILES,Sa RN4220 lethal,Sa ugtP lethal,Bead autofluor,BJeLR lethal,Mtb hypoxia inh,Mtb hypoxia inh growth,PrP 5UTR inh
O=C(C1CCCN(Cc2cc(Br)ccc2O)C1)N1CCCCC1 (configuration not stated),3.1,9,3412,3,.,.,-23
Cc1cc(C)c(NC(=O)/C=C\C(=O)O)c([N+](=O)[O-])c1,.,.,2400,0,.,.,-7
C/C(=N\NC(=O)c1ccccc1Cl)c1ccccn1,.,.,3701,48,.,.,18
COc1ccc(/C=N/NC(=O)c2nn(-c3ccc(C)c(C)c3)c(=O)c3ccccc23)cc1,.,.,2660,-3,.,.,-8
O=C(Nc1nc(-c2cc(F)ccc2F)cs1)C1=COCCO1,1.5,-17,5952,-3,-5,7,-45

# Hits appear at their usual frequency; overall some 3.9% were active at least once.
